Screens as filed in PubChem BioAssay.
TRPML1 blocker: blocks the human TRPML1 channel. 0.02% of 390,000 active. activity change, negative = inhibition, % (test concentration not listed). TRPML1-inducible cells, Ca2+ dye fluorescence, FDSS; active compounds read low; inhibition of EC80 agonist-evoked calcium signal; in the data active means activity change below about -50%; inconclusive means about -30% to -50%; inactive means above about -30%;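 note: stimulus is agonist 54-4 at its EC80 concentration; % is set by controls: 0 for no effect and ±100 for the full control effect; compound concentration not given in the record; the text of the record puts the active cut at -80%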
Target sequence (Q9GZU1 whole entry, looked up): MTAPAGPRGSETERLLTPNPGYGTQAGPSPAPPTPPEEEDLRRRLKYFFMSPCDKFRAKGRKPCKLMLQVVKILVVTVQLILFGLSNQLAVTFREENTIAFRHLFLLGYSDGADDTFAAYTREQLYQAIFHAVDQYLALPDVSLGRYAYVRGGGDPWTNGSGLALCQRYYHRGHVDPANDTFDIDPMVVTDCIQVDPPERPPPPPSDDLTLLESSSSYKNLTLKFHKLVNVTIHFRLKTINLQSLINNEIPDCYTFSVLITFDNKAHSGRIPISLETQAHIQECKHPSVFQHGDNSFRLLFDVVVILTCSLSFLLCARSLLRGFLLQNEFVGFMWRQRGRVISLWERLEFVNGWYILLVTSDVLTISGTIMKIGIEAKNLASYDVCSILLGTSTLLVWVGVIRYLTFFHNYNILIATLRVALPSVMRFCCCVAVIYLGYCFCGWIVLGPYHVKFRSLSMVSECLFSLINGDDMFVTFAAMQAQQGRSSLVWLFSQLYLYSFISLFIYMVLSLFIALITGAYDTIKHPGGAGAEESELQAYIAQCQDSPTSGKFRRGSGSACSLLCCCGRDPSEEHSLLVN
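TRPML1-DL cells, Tet-induced overnight (~16 h, 37 °C) at 1,500 cells/well, were loaded with Ca8 no-wash dye plus quencher for 45-90 min at room temperature. Compounds were pinned during FDSS kinetic reading; agonist 54-4 at EC80 (4 uM final) then added.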
D2 PAM: potentiates the human D2 dopamine receptor allosterically; DiscoveRx D2 beta-arrestin cells, luminescence, 90 min; 100% = 57 uM dopamine signal; potentiation, % (no concentration beside the values); AID 624464; 0.23% of 360,000 active; active = potentiation of 50% or more; inconclusive = 30% to 50%; inactive = 30% or less;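 note: compound concentration not given in the record; tested on top of an EC20 dose of dopamine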
Target sequence (P14416 whole entry, looked up): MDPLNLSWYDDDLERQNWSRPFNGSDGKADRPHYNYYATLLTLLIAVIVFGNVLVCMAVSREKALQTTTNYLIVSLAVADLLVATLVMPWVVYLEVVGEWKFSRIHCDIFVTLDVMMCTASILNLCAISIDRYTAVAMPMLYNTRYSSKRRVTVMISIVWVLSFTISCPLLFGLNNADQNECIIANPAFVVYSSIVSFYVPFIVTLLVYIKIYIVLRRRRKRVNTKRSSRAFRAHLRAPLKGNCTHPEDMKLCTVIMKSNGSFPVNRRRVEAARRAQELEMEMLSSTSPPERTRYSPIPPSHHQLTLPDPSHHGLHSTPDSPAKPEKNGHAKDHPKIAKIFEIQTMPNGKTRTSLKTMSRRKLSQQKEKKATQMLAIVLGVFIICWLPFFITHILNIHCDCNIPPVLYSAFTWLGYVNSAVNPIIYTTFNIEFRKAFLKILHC
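D2 cells co-treated with compound plus 50 nM dopamine (EC20) for 90 min at 37 deg C to detect potentiation. Beta-arrestin recruitment was read as enzyme-fragment luminescence after 1 h at ambient temperature. Full response was set by 57 uM dopamine.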
CtBP-E1A blk: CtBP/E1A binding inhibition. 0.49% of 340,000 active. AlphaScreen GST-E1A/His-CtBP binding, 1536-well; active compounds read low; control for the full effect not named in the record. activity change, % (test concentration not listed); in the data active means activity change below about -65%; inconclusive means about -30% to -65%; inactive means above about -30%; note: % is set by controls: 0 for no effect and ±100 for the full control effect
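Steps: dispense buffer (Tris pH 8.0, NaCl 300 mM, TCEP 1 mM, BSA, Tween 20); add 5X protein mix (GST-E1A, His-CtBP, 125 nM each); pin 23 nL compound; 2 h at 37 °C, dark; add 5X beads (50 ug/mL); 1 h; read.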
Six1-Eya2 blk: inhibitors of human Six1/Eya2 interaction. activity change, % (concentration not given with the values). Q15475+O00167. AlphaScreen GST-Six1/His-Eya2 binding, biochemical; active compounds read low; control for the full effect not named in the record. 0.56% of 360,000 active. AID 651725; in the data active = activity change below about -65%; inconclusive = about -30% to -65%; inactive = above about -30%; note: % is set by controls: 0 for no effect and ±100 for the full control effect
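AlphaScreen with GST-Six1 and His-Eya2 (5X mix: 250 nM and 500 nM), glutathione donor and nickel acceptor beads; buffer 50 mM Tris pH 8.0, 300 mM NaCl, 1 mM TCEP; 1 h at 37 C in the dark.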
TRPV1 potentiator: enhances activation of the human vanilloid receptor TRPV1; TRPV1-expressing cells, Fluo-8 calcium influx, capsaicin EC20 potentiation; host cell line not named in the record; control for the full effect not named in the record; Q8NER1; 0.02% of 320,000 active; potentiation, % at 8.33 µM; active means potentiation above 80%; inconclusive means 30% to 80%; inactive means below 30%; note: 0% is about no effect
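Cells expressing TRPV1 were dye-loaded with Fluo-8 and read kinetically: 10 s baseline, 3 min after compound (agonist portion), then 2 min after EC20 capsaicin (allosteric enhancer portion). Calcium-bound dye fluorescence at 480/520 nm.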
TRPML1 agonist: human mucolipin-1 channel agonism | TRPML1-expressing cells, Ca2+ dye fluorescence, FDSS; host cell line not named in the record; reference of the full effect not given here | activation, % (concentration not given with the values) | 0.12% of 410,000 active | Q9GZU1; in the data active = activation above about 50%; inconclusive = about 30% to 50%; inactive = below about 30%; note: 0% is about no effect; the text of the record puts the active cut at 80%
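Calcium fluorescence on an FDSS kinetic reader gave the read-out. Tet-induced TRPML1-DL cells were plated overnight, dye-loaded (Ca8 with quencher, 45-90 min, room temperature, dark), then read 110 s after compound addition, and again 110 s after 4uM final 54-4 (EC80).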
* = called active by the depositor; ? = inconclusive; / = not tested or not shown.

Fields – D2 PAM	TRPML1 blocker	TRPML1 agonist	CtBP-E1A blk	TRPV1 potentiator	Six1-Eya2 blk
O=C(Nc1ccc(Cl)c(Cl)c1)Nc1ccccc1C(=O)O
 : -7	6	-0.7	0	2	9
CC1(C(=O)Nc2cccc(NS(C)(=O)=O)c2)CCN1CCc1ccccc1 (centres undefined)
 : -13	/	-0.1	-12	/	3
Cc1noc(C)c1COC(=O)CN(C)S(=O)(=O)c1ccc(Cl)cc1
 : -3	6	0.4	6	6	3
O=C(COC(=O)c1cccnc1Cl)NCc1ccco1
 : -2	9	0.3	5	2	-7
Cc1ccc(S(=O)(=O)NC(=O)Nc2ccc(OC(F)F)cc2)cc1
 : -13	10	-0.6	/	18	-3
COC(=O)c1nnn(CC(=O)Nc2cccc(Cl)c2C)c1C(=O)OC
 : 2	-23	-0.5	4	5	0
O=C(/C=C\Nc1ccccn1)c1ccc(Cl)cc1
 : -16	-4	0.7	6	-1	5
CC(C)c1ccccc1NC(=O)COC(=O)COc1ccccc1[N+](=O)[O-]
 : -4	6	0.4	16	-5	-2
C[C@H](NC(=O)c1nc[nH]c1C(=O)NC1CCN(C(=O)OC(C)(C)C)CC1)C(=O)OCc1ccccc1
 : 7	-4	0.4	-2	8	-7
COc1ccc(/C=N/N=C2/CC(C)(C)Cc3n[nH]c(=O)cc32)cc1
 : -1	-12	-0.1	3	2	1
O=C(NNC(=S)Nc1ccc(Cl)cc1Cl)c1cccnc1
 : -4	-2	0.2	4	-2	3
CCOC(=O)C1=CN(CC2CCCO2)C=C(C(=O)OCC)C1c1ccccc1C(F)(F)F (centres undefined)
 : -11	32	1.1	24	-5	31
CCCCOc1cccc(C2/C(=C(/O)c3ccc4c(c3)CC(C)O4)C(=O)C(=O)N2CCN2CCOCC2)c1 (centres undefined)
 : -8	-15	-1.1	1	8	5
CCOC(=O)N1CCc2c(sc(N)c2C#N)C1
 : 54*	-16	2.0	-29	12	-9
CCCCC[C@@H](C)N1C[C@H](COCc2ccccc2)Oc2cc(N3CCC[C@H]3C(N)=O)ccc2S1(=O)=O
 : /	/	-0.5	0	/	11
CC(=N\NC(=O)c1ccccc1)/C(=N/O)C(=O)Nc1ccccc1
 : -2	3	-0.5	-10	-7	-11
CC(C)(C)/C(COc1ccccc1[N+](=O)[O-])=N/O
 : 5	0	1.3	3	-16	23
COc1ccc(Cl)cc1-c1cc(C(=O)NCc2ccc(F)cc2)[nH]n1
 : -11	/	-0.9	2	/	-4
N#Cc1ccc(OCC(=O)NNC(=O)C2CCCCC2)cc1
 : -4	-8	0.1	-19	/	-1
Cc1ccc(S(=O)(=O)NN2Cc3ccccc3C2=N)cc1
 : 0	5	-1.0	4	-2	9
CC[C@]1(C(=O)OC)[C@H]2C(=O)N(C)C(=O)[C@H]2[C@H]2CN(C)C(=NC)N21
 : -6	-14	0.1	4	/	4
CCOc1ccccc1CN1CCCC(CNS(=O)(=O)c2ccc(OC)cc2)C1 (centres undefined)
 : -21	-5	0.5	/	-23	1
O=C(Oc1ccccc1)c1ccc2nsnc2c1
 : -6	1	0.7	12	7	-10
CC(=O)N1CCC(c2c[nH]c3ccccc23)CC1
 : 0	2	-0.4	-1	1	-3
CC(/C=C1\SC(=O)N(CC(=O)Nc2ccc(O)cc2)C1=O)=C\c1ccccc1
 : -3	-1	0.1	-10	-8	-3
Cc1ccc(-c2csc(NC(=O)c3c(C)noc3C)n2)cc1C
 : -2	18	1.3	0	0	-3
Cc1cc2c(cc1S(=O)(=O)N(C)c1ccccc1)n(C)c(=O)n2C
 : 1	3	-0.6	/	0	-14
Cc1ccccc1CNC(=O)COc1ccccc1
 : -2	-18	1.0	-3	-16	7
Cc1cccc(C(=O)NC2CC3CCCC(C2)N3C(=O)Nc2ccccc2)c1 (centres undefined)
 : -2	5	0.2	0	4	11
CN(C)C(=O)c1cccc(-c2cnc3c(NC=O)cc(-c4ccc(F)cc4)cn23)c1
 : 6	/	-0.4	-21	/	?

(listing goes on)
Fields – D2 PAM	TRPML1 blocker	TRPML1 agonist	CtBP-E1A blk	TRPV1 potentiator	Six1-Eya2 blk
CCOc1ccccc1NC(=O)NCc1ccc(F)cc1
 : -14	14	-0.1	-18	13	-6
CC(=O)N(C(C)=O)C1=C(C#N)C2(CCCCC2)Cc2ccccc21
 : -3	13	1.2	-13	-6	3
Cc1cc(Br)ccc1NC(=O)c1cnc(N2CCN(c3ccccn3)CC2)c2ccccc12
 : 15	-5	2.0	-1	13	-1
O=C(NNC(=S)NC(=O)c1ccccc1[N+](=O)[O-])c1ccccc1Cl
 : -8	-16	0.6	1	2	-13
Oc1ccc(C[C@@H]2CNCCN2CCc2cccc3ccccc23)cc1
 : -22	?	0.2	/	-32	1
COC(=O)Cc1c(O)ccn(Cc2ccc(Cl)c(Cl)c2)c1=O
 : -5	-16	1.4	-1	-9	-4
O=C(COc1ccccc1F)NNC(=O)Cn1c(=O)cnc2ccccc21
 : -2	7	-0.8	/	10	-1
CCN(CC)C(=O)C1=C(C)N(CCCN2CCCC2=O)C(=O)C(CC(=O)NCCc2ccccn2)C1 (centres undefined)
 : 3	-4	0.1	1	/	9
Cc1ccsc1/C=N/NC(=O)CC(=O)NCC(C)C
 : -5	-4	0.7	/	4	-1
CCCn1cnc2scc(-c3ccc(C)cc3)c2c1=O
 : -1	29	-0.3	5	-4	7
CCNC(=O)C1(C)CCN(C(=O)c2ccc(OC(F)F)cc2)C1 (centres undefined)
 : -7	6	-0.4	-7	/	-18
Cc1ccc(SCCNC(=O)c2ccccc2F)cc1
 : -14	/	/	/	-29	9
N#CC1(NC(=O)CSc2nncn2-c2ccccc2F)CCCC1
 : 4	10	-0.5	/	-6	-3
COc1cccc(-n2ccnc2SCC(=O)N2CCc3ccccc32)c1
 : -15	-3	1.4	-16	-8	-12
CSCCC(NC(=O)c1ccccc1)C(=O)Nc1ccc(C)cc1 (centres undefined)
 : -6	4	2.7	3	-3	5
N#C/C(=C\c1cn(CC(=O)O)c2ccccc12)C(=O)NCc1ccccc1
 : -7	24	0.5	-17	-2	1
CN(C(=O)c1cc(-c2cccs2)nn1-c1ccccc1)C1CCS(=O)(=O)C1 (centres undefined)
 : 1	0	-0.5	2	/	-1
O=C(COc1ccc2ccc(=O)oc2c1)NC1CCCCC1
 : 1	-2	-0.3	-1	-5	3
Cc1cccc(C(=O)NC2CCN(CC(=O)NCc3cccs3)CC2)c1
 : -3	48	-0.2	5	-10	8
Cc1ccccc1-n1c(=O)cc(N2CCCCCC2)[nH]c1=O
 : -6	6	-0.5	4	?	1
CCc1nc(SCC(=O)Nc2cc(C)ccc2OC)c2c(C)c(C)sc2n1
 : 0	18	3.6	2	10	0
O=C(Nc1cc(Br)ccc1O)c1cc(-c2ccc3c(c2)OCO3)on1
 : -5	-14	-0.4	5	5	12
CC[C@]1(C(=O)OC)[C@H]2C(=O)N(Cc3ccccc3)C(=O)[C@H]2[C@H]2CN=C(SCc3ccc(C#N)cc3)N21
 : -3	-21	2.8	0	/	-1
O=C(Nc1ccc(-c2ccc3nncn3n2)cc1)c1ccc(Br)o1
 : -3	-13	-0.5	-3	15	-7
CC(Nc1n[nH]c(=S)[nH]c1=O)C(=O)OCc1ccccc1 (centres undefined)
 : -10	-2	0.7	-6	?	-1
CC(=O)Nc1cc(C(=O)N(C)Cc2ccco2)ccc1Sc1ccc(C)cc1
 : -13	-3	4.2	-4	2	-7
Cc1ccc(-c2csc3nc(C)n(-n4c(C)ccc4C)c(=O)c23)o1
 : -23	2	1.3	-19	-21	-23
Cc1cc2oc(C(=O)Nc3ccc(S(=O)(=O)Nc4onc(C)c4C)cc3)cc(=O)c2cc1Cl
 : -12	-2	-0.6	/	-6	-9
Cc1c(C(=O)O)cccc1[N+](=O)[O-]
 : -1	3	0.0	4	-2	-2
CCCC(=O)N1c2ccccc2[C@@H](N(C(C)=O)c2ccccc2)C[C@H]1C
 : 2	20	1.6	-11	-2	4

(listing goes on)
Fields – D2 PAM	TRPML1 blocker	TRPML1 agonist	CtBP-E1A blk	TRPV1 potentiator	Six1-Eya2 blk
Cc1ccc2c(c1)c(C)cc(=O)n2CCC(=O)O
 : 9	-5	-0.1	-3	-2	-13
CCSc1nc(N)c(C#N)c(-c2ccccc2Cl)c1C#N
 : -6	10	-0.1	6	-6	1
Cc1ccsc1C(=O)N1CCC1(C)C(=O)NS(=O)(=O)c1ccccc1C(F)(F)F (centres undefined)
 : 30	/	-1.0	2	/	5
S=C(NCc1ccco1)Nc1ccc(Br)cc1Cl
 : -4	6	0.8	21	-5	-4
CCc1nc2sc3c(c2c(=O)n1NC(=O)CCl)CCCC3
 : -15	2	-0.2	-3	7	-4
O=C(Nc1cccnc1)c1cccc(S(=O)(=O)Nc2ccccc2F)c1
 : -28	0	0.7	-1	?	1
O=C(Nc1ccccc1)Nc1nc(-c2ccc(F)cc2)cs1
 : 15	28	-0.2	-6	10	-6
CCCn1c(N)c(N(CCOC)C(=O)c2cc3ccccc3cc2OC)c(=O)[nH]c1=O
 : -1	-1	1.1	4	-7	-1
CSc1cccc(NC(=S)N(CCCN2CCCC2)Cc2cccs2)c1
 : -22	-1	0.3	2	-4	-4
Cc1ccc(Cc2nc(-c3ccncc3)no2)cc1
 : 1	33	3.6	11	-7	7
Cc1csc(=O)n1CCC(=O)OCc1nnc(-c2ccc([N+](=O)[O-])cc2)o1
 : 1	20	0.7	-9	-2	-4
CC(C)(C)NC(=O)C(c1ccccc1)N(C(=O)C1CSC(=O)C1)c1ccccc1 (centres undefined)
 : -11	7	3.5	-2	-10	5
CCCNC(=O)C/C(C)=N/NC(=O)COc1ccc(C)cc1Br
 : -23	-3	0.1	1	-36	-1
CC(=O)N(c1ccccc1C)C1CCCC1
 : -8	-1	-0.6	8	-4	-11
O=C(Nc1ccccc1)O/N=C1/CCCc2occc21
 : -15	16	-0.3	-2	-9	-1
O=[N+]([O-])c1cc(C(F)(F)F)ccc1NCC1CCCO1 (centres undefined)
 : -7	6	0.7	1	-14	0
CCCN(CCC)C(=O)c1ccc2c(c1)OCO2
 : -4	13	0.3	-1	?	18
CCOC(=O)c1ccccc1NC(=S)N1CC(C)CC(C)C1 (centres undefined)
 : -19	25	3.3	7	-6	11
O=C(COC(=O)c1cccnc1Cl)Nc1ncc(Cl)cc1Cl
 : -28	-6	-1.0	2	2	3
Cn1nc(-c2ccccc2)c(-c2nc(-c3ccccc3Cl)no2)c1Cl
 : -5	7	-0.4	2	-9	3

Arranged by molar mass (smallest number first): 4 of the compounds above
Fields – D2 PAM	TRPML1 blocker	TRPML1 agonist	CtBP-E1A blk	TRPV1 potentiator	Six1-Eya2 blk
CC(C)(C)/C(COc1ccccc1[N+](=O)[O-])=N/O
 : 5	0	1.3	3	-16	23
CCCNC(=O)C/C(C)=N/NC(=O)COc1ccc(C)cc1Br
 : -23	-3	0.1	1	-36	-1
CCCn1c(N)c(N(CCOC)C(=O)c2cc3ccccc3cc2OC)c(=O)[nH]c1=O
 : -1	-1	1.1	4	-7	-1
Cc1cc(Br)ccc1NC(=O)c1cnc(N2CCN(c3ccccn3)CC2)c2ccccc12
 : 15	-5	2.0	-1	13	-1
